TRPML1 agonist: qHTS for Agonists of the Human Mucolipin Transient Receptor Potential 1 (TRPML1). 0.12% of 410,000 active. TRPML1-expressing cells, Ca2+ dye fluorescence, FDSS; host cell line not named in the record; reference of the full effect not given here. activation, % (test concentration not listed). Mucolipin-1 (Homo sapiens), Q9GZU1; in the data active = activation above about 50%; inconclusive = about 30% to 50%; inactive = below about 30%; note: 0% is about no effect; the text of the record puts the active cut at 80%
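Tetracycline-induced TRPML1-DL cells are seeded and incubated overnight before loading with a no-wash Ca2+ dye and quencher. Agonist activity is taken from the 110 s fluorescence read following compound pin-transfer on an FDSS, before EC80 54-4 challenge.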
TRPV1 PAM: HTS Assay for Compounds that Act as Potentiators of the Vanilloid Receptor 1; Transient receptor potential cation channel subfamily V member 1 (Homo sapiens), Q8NER1; TRPV1-expressing cells, Fluo-8 calcium influx, capsaicin EC20 potentiation; host cell line not named in the record; control for the full effect not named in the record; potentiation, % at 8.33 µM; 0.02% of 320,000 active; active means potentiation above 80%; inconclusive means 30% to 80%; inactive means below 30%; note: 0% is about no effect
Target sequence (Q8NER1 whole entry, looked up): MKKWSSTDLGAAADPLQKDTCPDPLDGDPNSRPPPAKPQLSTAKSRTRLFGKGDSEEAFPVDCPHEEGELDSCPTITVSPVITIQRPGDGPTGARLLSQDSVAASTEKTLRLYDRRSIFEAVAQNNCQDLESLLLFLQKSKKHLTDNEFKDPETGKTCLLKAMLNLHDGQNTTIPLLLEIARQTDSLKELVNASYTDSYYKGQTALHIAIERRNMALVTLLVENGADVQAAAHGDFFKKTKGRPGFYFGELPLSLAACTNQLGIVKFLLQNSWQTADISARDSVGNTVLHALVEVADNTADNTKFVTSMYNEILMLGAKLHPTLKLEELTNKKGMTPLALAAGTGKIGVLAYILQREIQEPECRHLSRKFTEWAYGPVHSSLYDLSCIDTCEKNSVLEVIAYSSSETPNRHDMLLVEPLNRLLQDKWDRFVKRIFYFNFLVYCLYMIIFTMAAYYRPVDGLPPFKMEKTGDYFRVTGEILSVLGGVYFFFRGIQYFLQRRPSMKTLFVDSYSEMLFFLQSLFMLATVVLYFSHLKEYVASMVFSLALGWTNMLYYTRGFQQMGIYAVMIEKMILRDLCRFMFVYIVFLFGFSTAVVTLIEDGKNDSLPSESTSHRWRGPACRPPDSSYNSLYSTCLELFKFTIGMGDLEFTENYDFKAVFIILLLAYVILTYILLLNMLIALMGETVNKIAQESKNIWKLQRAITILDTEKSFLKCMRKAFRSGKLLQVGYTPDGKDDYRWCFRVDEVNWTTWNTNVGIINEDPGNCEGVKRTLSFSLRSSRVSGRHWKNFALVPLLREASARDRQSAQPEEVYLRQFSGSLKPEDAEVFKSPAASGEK
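TRPV1-expressing cells were cultured overnight at 35.5C and loaded with Fluo-8 calcium dye for 40 to 90 min at room temperature. After a 10 s baseline, compound was added and calcium influx was read kinetically for 3 min (ex 480/em 520 nm).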
Menin MLL FP FL: qHTS Assay for Inhibitors Targeting the Menin-MLL Interaction in MLL Related Leukemias: Competition With Fluorescein Labeled MLL-derived Peptide | 290,000 tested, under 10 active | Fluorescence polarization, fluorescein-MLL peptide displacement from menin | FP activity change, % at 61.4 µM; inconclusive = falling polarisation curve, or a change in total fluorescence; inactive = total fluorescence flat and polarisation flat or rising; no compound was filed as active; the % refers to the polarisation; negative = inhibition;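 note: % of control where 0% means no effect; inhibitors lower the polarisation; unlabelled MLL peptide was the positive control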
PINK1 expr mod: A Quantitative High throughput Screen to Identify Chemical Modulators of PINK1 Expression | PINK1 immunofluorescence, high-content cytometry, 24 h | Potency, µM (highest dose often 76.6 µM), without a hit: top-dose activation (PINK1 increase), hits mostly activators | 0.2% of 410,000 active | AID 624263, 2012; active = well fitted activation curve with a large enough effect; inconclusive = small, poorly fitted or top-dose-only effect; inactive = flat fitted curve, though single readings scatter; cell line not stated here;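 note: potency is the fitted concentration of half-maximal effect; % of control where 0% means no effect; nearly all actives have a fitted effect of over 65% in size; a mitochondrial uncoupler was the plate control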
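Readout is PINK1 immunofluorescence, quantified alongside mitochondrial, cell and nuclear markers by laser-scanning microplate cytometry. Cells from a stable line were exposed to compound titrations (5 concentrations) for 24 hours, with CCCP controls.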
TRPML1 inh: qHTS for Inhibitors of the Human Mucolipin Transient Receptor Potential 1 (TRPML1); Mucolipin-1 (Homo sapiens), Q9GZU1; TRPML1-inducible cells, Ca2+ dye fluorescence, FDSS; hits give low values; inhibition of EC80 agonist-evoked calcium signal; activity change, negative = inhibition, % (no concentration beside the values); 0.02% of 390,000 active; in the data active means activity change below about -50%; inconclusive means about -30% to -50%; inactive means above about -30%;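 note: stimulus is agonist 54-4 at its EC80 concentration; % is set by controls: 0 for no effect and ±100 for the full control effect; compound concentration not given in the record; the text of the record puts the active cut at -80%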
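Tet-induced TRPML1-DL cells loaded with Ca8 no-wash calcium dye were read kinetically on FDSS. Compound addition was followed by EC80 agonist 54-4 (4 uM final); inhibition was read over 110 s.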
Sfp inh: qHTS Assay for Inhibitors of Bacillus subtilis Sfp phosphopantetheinyl transferase (PPTase). Potency, µM, inactives show max response, negative = inhibition, usual class: inhibitors. 3.5% of 310,000 active. Biochemical Sfp PPTase activity, qHTS; active = well fitted inhibition curve with a large enough effect; inconclusive = small, poorly fitted or top-dose-only effect, or another doubt; inactive = no such curve, though single readings can be large or run the other way;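 note: the enzyme is Sfp with the accession as filed and its product quenches rhodamine fluorescence; potency is the fitted concentration of half-maximal effect; 0% = enzyme reaction without inhibitor and -100% = no enzyme wells; top concentration of the series not given in the record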
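Fluorescence-quenching assay with 15 nM Sfp, 5 uM rhodamine-CoA and 12.5 uM BHQ-2-labelled ybbR peptide in pH 7.6 Hepes/MgCl2 buffer. Enzyme was pre-incubated with compound for 15 min at room temperature. Rate was taken from the 30-min fluorescence change (525/598 nm).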
ClpP mod: qHTS Assay for Activators of ClpP; Potency, µM (series often up to 57.5 µM), for the others: at the top dose activity change, negative = active; 1.9% of 340,000 active; purified B. subtilis ClpP, FRET peptide cleavage, 20 min; AID 651965, 2013; ATP-dependent Clp protease proteolytic subunit (Bacillus subtilis (strain 168)), P80244; active = well fitted falling curve with a large enough effect; inconclusive = small, poorly fitted or top-dose-only effect; inactive = no such curve, though single readings can be large or run the other way; note: potency is the fitted concentration of half-maximal effect; the source files actives as falling curves though it sought activators and does not explain the sign; nearly all actives have a fitted effect of over 65% in size; many hits overshoot -100%
Target sequence (P80244 whole entry, looked up): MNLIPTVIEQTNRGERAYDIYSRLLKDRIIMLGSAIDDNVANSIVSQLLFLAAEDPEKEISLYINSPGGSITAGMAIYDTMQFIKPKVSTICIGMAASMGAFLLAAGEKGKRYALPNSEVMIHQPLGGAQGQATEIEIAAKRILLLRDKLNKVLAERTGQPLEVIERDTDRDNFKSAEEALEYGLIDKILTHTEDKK
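ClpP 10 microg/mL final, pH 8 Tris/KCl buffer with BSA, glycerol, Tween-20; compound pinned in; FRET-FV substrate; RT 20 min; Ex320/Em430; ΔFRET vs ADEP 5.8 microM, DMSO, no enzyme.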
* = called active by the depositor; u = inconclusive; x = no result given; & = joins results of further samples; [ ] = remark or other dose.

Every second line gives: TRPML1 agonist | TRPV1 PAM | Menin MLL FP FL | PINK1 expr mod | TRPML1 inh | Sfp inh | ClpP mod
- Cc1cccc(Cn2c(CNC(=O)c3ccccc3)nc3ccccc32)c1
  0.3 | x | x | 4.8% | 23 | x | 0.7%
- CCC(Sc1nc2cc(OC)c(OC)cc2c(=O)n1Cc1ccc(OC)cc1)C(=O)NCCOC (configuration not stated)
  -0.6&0.7 | -5 | 0.3 | -0.2%&-0.8% | 1&-17 | 1% | -1.6%
- COc1ccc(O)c(-c2cc(-c3cccc(Br)c3)n[nH]2)c1
  2.0 | 17 | 0.7 | 7.1% | -2 | -19% | -0.9%
- CCOc1cccc(C(=O)Nc2ccc(N(CC)CC)cc2)c1
  1.2 | 4 | 0.6 | 0.1% | -11 | 0% | -1.3%
- CC(NC(=O)COC(=O)COc1ccc(Cl)cc1)c1ccccc1 (configuration not stated)
  -1.1 | x | x | 3.6% | -1 | x | x
- COc1ccc(C(=O)NCCCNC(=O)c2ccccn2)cc1
  0.9 | 5 | 0.2 | 1.4% | -9 | -1% | 1.4%
- C=CCN(CC(=O)NC1CCS(=O)(=O)C1)S(=O)(=O)c1ccccc1C(F)(F)F (configuration not stated)
  0.1 | -5 | 0.5 | 2.6% | -4 | 17% | x
- Cc1ccc(-c2csc(N(Cc3ccco3)C(=O)c3cccs3)n2)cc1
  1.1 | 4 | 3.2 | 2.3% | -2 | 6% | -27%
- O=C(NC1CC1)C1CCN(C2CCN(C(=O)c3ccc4cccc(F)c4n3)CC2)CC1
  0.4 | -2 | -8.5 | 2.4% | 15 | 23% | 0.3%
- CC(C)(C)OC(=O)N(CCc1ccccc1)Cc1ccccc1OCc1cccc(NC(=O)C2CCC2)c1
  4.3 | x | x | 5.9% | 5 | x | -0.2%
- CCOC(=O)C1=C(C)NC2=C(C(=O)CC(C)(C)C2)C1c1coc2ccccc2c1=O (configuration not stated)
  -0.3 | -3 | 1.4 | u | -12 | 4% | -0.6%
- CCc1c(C)sc(NC(NC(C)=O)(C(=O)OC)C(F)(F)F)c1C#N (configuration not stated)
  -0.7 | -2 | 4.0 | 0.0% | 18 | 7% | 0.6%
- Clc1ccc(C2[C@H]3CN(Cc4ccc(-c5ccccc5)cc4)[C@H](c4ccccc4)C34CC2(c2cccnc2)C4)cn1 (some centres not stated)
  x | u | 4.4&16 | x | x | 5%&-7% | x
- COc1ccc(NC2CCCN(C(=O)c3ccncc3)C2)cc1 (configuration not stated)
  -0.6 | 5 | -4.3 | 2.9% | -4 | 1% | -3.4%
- CN(Cc1ccccc1)c1ccc(/C=C/c2ccnc3ccccc23)cc1
  u | x | x | 2.8% | x | x | -2.1%
- Cc1ccc([C@@H]2C[C@H]3[C@@H](CN2S(=O)(=O)c2ccc(Cl)cc2)C(=O)C[C@@H](c2ccc(Cl)cc2)N3S(=O)(=O)c2ccccc2C)cc1
  1.0 | x | x | 3.0% | 18 | x | -1.1%
- Cc1ccc(/C=C/C(=O)OCC(=O)NCCN2C(=O)CSC2=O)o1
  0.0 | 5 | -8.6 | -0.7% | -10 | 32µM* | -1.7%
- O=C(O)c1nn(-c2ccccc2)ccc1=O
  -0.7 | 3 | 3.9 | -0.7% | 12 | 10% | 0.4%
- O=C(c1cccs1)N1C[C@@H](O)[C@H](n2cc(C3CC3)nn2)C[C@@H]1c1ccc(Cl)cc1
  -1.0 | x | x | 3.9% | -6 | x | 0.8%
- COc1cccc(CNc2nc(NCc3ccccc3)nc3ccsc23)c1
  16 | x | x | 22% | x | x | -13%
- O=C1CCC(C(=O)Nc2ccccc2)N1 (configuration not stated)
  -1.2 | -3 | 0.9 | 0.2% | 21 | 6% | 0.2%
- CN1CCC(NCCC(c2ccc(F)cc2)c2ccc(Cl)cc2)CC1 (configuration not stated)
  2.1 | -8 | -7.5 | -2.2% | 15 | u | x
- Cc1c(Cl)cccc1NC(=S)NN1CCOCC1
  -0.8 | -5 | 1.4 | 1.8% | -16 | 16% | -1.0%
- CCOC(=O)[C@]12CCC=C1N(Cc1ccco1)C(=O)[C@H](CC(=O)NCc1cccs1)C2
  -0.7 | x | x | 0.9% | x | x | -0.3%
- Cc1ccc(N2CCN(C(=O)c3nn(C)c4c3CSc3ccccc3-4)CC2C)cc1 (configuration not stated)
  0.7 | x | x | 2.9% | 21 | x | 2.7%
- COCCNC(=O)CSc1nc2cc3c(cc2c(=O)n1Cc1ccc(C(=O)NCCc2ccc(OC)c(OC)c2)cc1)OCO3
  1.8 | x | x | -0.2% | -14 | x | -3.7%
- CCOc1ccc(NC(=O)C2CCC(CNS(=O)(=O)c3ccc(Br)s3)CC2)cc1 (configuration not stated)
  0.8 | x | x | 4.1% | 33 | x | 4.8%
- Cc1ccsc1/C=C/c1ccc2ccccc2n1
  1.0 | 18 | 11 | 15% | -4 | -21% | -0.8%
- Cc1ccc(C(=O)NCC(c2ccc(F)cc2)N2CCOCC2)s1 (configuration not stated)
  0.1 | x | x | 1.3% | -5 | x | -0.5%
- CC(C)Oc1ccccc1C1CC(=O)Nc2c1c(=O)n(C)c(=O)n2C (configuration not stated)
  x | -4 | -0.3 | x | x | -8% | x
- Cc1cc(C(=O)COC(=O)c2ccc(NC(=O)CC#N)cc2)c(C)n1C1CC1
  -0.2 | 1 | x | 0.1% | 6 | x | x
- Cc1ccc(N)cc1O
  0.5 | -6 | x | 1.9% | -3 | x | 1.1%
- Cc1nnc(C)n1/N=C/c1cccc([N+](=O)[O-])c1
  -0.7 | 0 | 0.1 | 2.6% | 29 | 7% | x
- CC(NC(=O)c1ccc(OC2CCN(C(=O)c3cccnc3)CC2)cc1)C1CC1 (configuration not stated)
  0.5 | 0 | 0.0 | 2.1% | 2 | 6% | x
- CCOC(=O)N1CCN(CC(=O)Nc2ccc(C)cc2)CC1
  0.8 | -5 | 0.7 | -3.7%[38.3 µM] | -9 | 12% | 0.1%
- CC(C)CC(=O)NS(=O)(=O)c1ccc(NS(C)(=O)=O)cc1
  -0.3 | 3 | 0.6 | -0.5% | 1 | 5% | -0.1%
- CCOc1ccc(N2CC(C(=O)NCc3ccccn3)CC2=O)cc1 (configuration not stated)
  -0.3 | 1 | -4.7 | -0.7% | 8 | 2% | x
- CC(=O)c1ccc(N2CCN(C(=S)Nc3ccc(Cl)c(Cl)c3)CC2)cc1
  0.4 | 2 | 5.7 | 8.4% | 7 | 8% | x
- Cc1cccc(NC(=O)N2CCCC(CNC(=O)c3ccccc3Cl)C2)c1C (configuration not stated)
  -0.6 | -1 | -0.2 | 0.6% | -9 | 10% | 0.7%
- Cc1cccn2c(=O)nc(SCC(=O)NCc3ccc(F)cc3)nc12
  -0.1 | 21 | x | 4.2% | 5 | x | -1.3%
- CCN(CC)S(=O)(=O)c1ccc(N2CCOCC2)c(NC(=O)CNCCc2ccccc2)c1
  1.7 | x | 2.4 | 0.7% | 1 | -11% | -0.7%
- CC(=O)N1c2ccccc2C2(C)C(C1(C)C)C2(Cl)Cl (configuration not stated)
  1.6 | -6 | 1.7 | 8.0% | -2 | 1% | -2.9%
- Cc1cc(C)cc(NC(=O)CCCn2c3ccccc3c(=O)c3ccccc32)c1
  1.5 | x | x | 14% | -6 | x | 3.8%
- O=C(NCc1ccc(F)cc1)c1ccc(N2CCc3ccccc32)c([N+](=O)[O-])c1
  0.8 | -9 | -0.4 | 7.5% | 70 | 2% | -3.5%
- COc1ccc([C@@H]2CC=C(C(=O)O)[C@H](c3ccc(Cl)cc3)N2S(=O)(=O)c2ccc(C)cc2)cc1OC
  -0.5 | u | x | -1.0% | 9 | x | -2.0%
- CCCCn1c(=O)c2c(c3ccccc31)OCC(=O)N2
  x | -7 | 5.1 | x | x | 8% | x
- COC(=O)c1ccccc1OCCCOc1ccc(C)cc1OC
  x | -2 | 3.9 | x | x | u | x
- O=C(c1cccc(C(=O)N2CCN(c3ccccc3F)CC2)n1)N1CCN(c2ccccc2F)CC1
  -0.7 | -13 | -0.1 | -0.8% | 7 | 7% | 1.0%
- CCOC(=O)c1c(CC(C)C)csc1NC(=O)COC(=O)c1ccc(O)cc1
  0.6 | -12 | x | u | 21 | x | u
- S=C(NC1CCCC1)N1CCN(c2ncccn2)CC1
  -0.8 | -12 | 1.9 | -0.4% | -6 | -8% | x
- O=C(NC1CCN(S(=O)(=O)c2ccccc2F)CC1)c1ccco1
  0.2 | 16 | -0.5 | 0.8% | -1 | 17% | x
- CCOc1ccc2nc(SCC(=O)N3CCN(C(=O)c4ccco4)CC3)sc2c1
  0.3 | 7 | 1.4 | -0.9% | -3 | -2% | -2.6%
- Cc1ccccc1N(CC(=O)NC1CCCCC1)C(=O)CCCC(=O)Nc1ccccn1
  2.3 | -1 | -5.6 | 2.1% | 0 | 11% | x
- N#CCC(=N)N1CCN(c2ccc(Cl)cc2)CC1
  0.4 | 17 | 0.4 | 1.6% | -9 | -12% | -1.0%
- COCCNC(=S)NCCCNc1nc2cc3c(cc2cc1C#N)OCO3
  0.4 | 6 | -2.0 | 5.5%[38.3 µM] | 3 | 14µM* | 14µM*
- O=C(CSc1nnc(-c2ccco2)o1)Nc1c(F)cccc1F
  0.0 | -10 | x | 0.8% | 9 | x | -2.0%
- CCN(CC)C(=O)Cn1c(C)c(/C=C/c2cc[n+](C)cc2)c2ccccc21
  4.2 | -3 | u | -2.4% | u | 17% | -3.4%
- COc1ccc(-c2c(C#CC(C)(C)O)c3ccccc3n2C)cc1
  0.7 | x | x | 13% | 19 | x | -29%
- CC(=O)NC(Cc1c[nH]c2ccccc12)C(=O)NCCc1ccccn1 (configuration not stated)
  -0.6 | -3 | 0.2 | 3.0% | 10 | 6% | x
- Cn1c(O)c(/C=N/NC(=O)c2cc3ccccc3cc2O)c2ccccc21
  19 | 17 | u | u | 19 | 15% | x
- Cc1ccccc1CS(=O)(=O)c1nnc([C@H](CC(C)C)NC(=O)OC(C)(C)C)o1
  2.7 | -26 | 3.6 | 7.8%[38.3 µM] | -9 | 22µM* | -1.1%
- COc1ccccc1N(C(=O)c1ccco1)C(C(=O)NC1CCCC1)c1cccnc1 (configuration not stated)
  -0.2 | -8 | 5.4 | 4.0% | -3 | 3% | -1.1%

Screening results from PubChem BioAssay.
